YopH inh = blocks Yersinia enterocolitica YopH tyrosine phosphatase; fluorescence Ex485/Em525; inhibition, %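 (about 10 µM by stock and volumes)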; 140,000 compounds, 0.16% hits; AID 898;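 active = inhibition of 50% or more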;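 note: controls were vehicle for no effect and minimum signal wells for full effect; inactives centre near -20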
Arbovirus inh = blocks arbovirus infection. 200,000 compounds, 0.37% hits. AID 1251. inhibition, % at 10 µM. arbovirus infection cell-based antiviral screen;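 active = inhibition from about 30%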;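 note: bluetongue infection of BSR cells; cell survival read as ATP light after 72 h; 0% = infected wells without compound and 100% = uninfected wells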
RecA splice inh = blocks M. tuberculosis RecA intein splicing; P9WHJ3; cell-free RecA intein splicing, fluorescence; inhibition, %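 (about 9 µM by stock and volumes)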; 290,000 compounds, 0.75% hits; in the data active = inhibition above about 30%; inconclusive = no clear call, values can overlap the other calls;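 note: 0% = vehicle wells and 100% = reference inhibitor control wells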
Target sequence (P9WHJ3 whole entry, looked up, canonical isoform): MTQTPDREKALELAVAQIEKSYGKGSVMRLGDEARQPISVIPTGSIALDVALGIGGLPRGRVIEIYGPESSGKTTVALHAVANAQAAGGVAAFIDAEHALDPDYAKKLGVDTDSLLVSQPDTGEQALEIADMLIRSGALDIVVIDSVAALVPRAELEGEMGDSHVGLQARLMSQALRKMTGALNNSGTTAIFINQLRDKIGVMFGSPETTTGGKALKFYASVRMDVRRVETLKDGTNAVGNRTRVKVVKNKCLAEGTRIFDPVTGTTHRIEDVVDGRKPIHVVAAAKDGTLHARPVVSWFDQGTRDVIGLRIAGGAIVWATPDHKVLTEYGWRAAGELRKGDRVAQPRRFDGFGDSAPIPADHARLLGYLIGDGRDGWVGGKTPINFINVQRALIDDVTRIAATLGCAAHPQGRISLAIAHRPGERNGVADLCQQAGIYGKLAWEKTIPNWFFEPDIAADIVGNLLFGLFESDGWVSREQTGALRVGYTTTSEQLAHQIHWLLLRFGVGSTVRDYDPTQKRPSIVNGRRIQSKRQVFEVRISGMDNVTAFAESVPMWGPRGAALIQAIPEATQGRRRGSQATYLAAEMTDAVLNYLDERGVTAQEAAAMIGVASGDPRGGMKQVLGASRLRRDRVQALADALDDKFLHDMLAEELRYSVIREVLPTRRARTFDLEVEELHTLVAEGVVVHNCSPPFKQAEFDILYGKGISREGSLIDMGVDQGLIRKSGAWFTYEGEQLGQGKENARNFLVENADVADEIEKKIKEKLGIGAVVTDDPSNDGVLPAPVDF
Mtb H37Rv = M. tuberculosis H37Rv growth inhibitors, H37Rv strain (AID 1626). M. tuberculosis H37Rv growth inhibition; higher % means a stronger effect. one-dose inhibition, % at 10 µM; IC50 in µM for titrated hits. 220,000 compounds, 0.95% hits;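 active = confirmed in a dose series; inconclusive = inhibition above 80% but not taken into the dose series; inactive = below 80% or under 30% at every dose of the series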;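 note: bacteria incubated seven days before Alamar blue readout; 0% = bacteria only wells and 100% = bacteria with antibiotic wells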
Mtb betalactam = beta-lactam sensitization of Mtb H37Rv | M. tuberculosis H37Rv growth with meropenem, percent inhibition; hits of this screen are not shown here | inhibition, % at 25 µM | 330,000 compounds, 0.27% hits | AID 434955;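 active = about 74% or more and at least 40 points above the plate without the antibiotic, then above 30% in a dose series; inconclusive = first-round hits that could not be retested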;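 note: growth measured after seven days incubation then overnight dye step; 0% = bacteria only wells and 100% = bacteria with antibiotic; twin plates without the antibiotic show which effects depend on it; some results filed as inactive read as strong as hits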
Numbers without * were called inactive; u = inconclusive; x = no result given. The list is partial; rates above refer to the full screens.

Values run as follows: YopH inh	Arbovirus inh	RecA splice inh	Mtb H37Rv	Mtb betalactam
> CCC(CC)NC(=O)c1nn(Cc2ccccc2)c(=O)c2ccccc12
 : x	x	3.3	x	7
> COC(=O)c1c(NC(=O)COC(=O)c2ccc(C)s2)sc2c1CCCCC2
 : -26	-12	0.0	-5%	0
> CCC(c1nc2ccccc2c(=O)n1-c1cccnc1)N1C(=O)c2ccccc2C1=O (configuration not stated)
 : 2	12	-0.9	-7%	0
> CC1(C)CC(=O)c2cnc(NCc3ccco3)nc2C1
 : -25	0	x	0%	-8
> CCN1CCN(c2ccc(S(=O)(=O)N3CCOCC3)cc2NC(=O)CCOc2ccccc2)CC1
 : x	x	-0.5	x	-16
> O=C(NCC(c1cccnc1)N1CCN(c2ccccc2)CC1)c1ccc2c(c1)OCO2 (configuration not stated)
 : 19	11	-1.4	-12%	-3
> Fc1ccc(-n2c(-c3ccc4ccccc4n3)n[nH]c2=S)cc1
 : x	26	4.1	11%	0
> Cn1c(=O)[nH]c(=O)c2c1nc(Br)n2CCOc1ccccc1
 : -27	0	7.1	-9%	0
> CCOC(=O)N1CCC(NC(=O)c2cc(-c3ccc(OC)cc3)nc3ccccc23)CC1
 : x	x	-2.9	x	98
> O=C(COc1ccccc1)NCCSCc1ccco1
 : 31	-2	1.5	9%	-2
> CCc1cccc2cc3c(N)c(C(=O)Nc4ccc(S(=O)(=O)N5CCCC5)cc4)sc3nc12
 : -17	-20	-3.8	8%	0
> O=C(COC(=O)C12CC3CC(CC(C3)C1)C2)Nc1ccc(OC(F)F)cc1
 : 5	-6	5.2	-11%	-13
> Cn1ccc(-c2ccccc2)n1
 : x	15	0.3	-6%	1
> CCOc1ccc(CCNC(=O)CN2C(=O)CCSc3ccccc32)cc1
 : x	x	-1.3	x	0
> CC1(c2ccc3ccccc3c2)NC(=O)N(CC(=O)NCc2cccs2)C1=O (configuration not stated)
 : -22	5	1.3	3%	1
> O=C(NCC1CCCO1)C(=O)c1c[nH]c2ccccc12 (configuration not stated)
 : x	1	1.7	-4%	-6
> S=C(Nc1ccc(Cl)cc1)c1sc(N2CCCCC2)nc1N1CCOCC1
 : -7	19	14	3%	-1
> O=C(O)Cn1cnc2sc3c(c2c1=O)CCCC3
 : x	3	-3.5	-1%	-5
> CC1CCN(CC(C)OC(=O)c2ccco2)CC1 (configuration not stated)
 : x	x	-0.6	x	1
> CCOC(=O)c1ccccc1NC(=O)COC(=O)c1c(CC)noc1C
 : x	x	4.8	x	-5
> CSC(=S)N/N=C/c1ccc(N(C)C)cc1
 : x	-12	-4.4	0%	1
> Cc1ccc2sc(N3CCN(CCNC(=O)c4ccco4)CC3)nc2c1C
 : x	x	8.1	x	12
> CCOc1ccccc1N1CCN(C(=O)c2ccc3[nH]c4c(c3c2)CCCC4)CC1
 : -13	-25	5.4	12%	11
> Cc1ccc(S(=O)(=O)N(C)CCCC(=O)n2nc(C)cc2C)cc1
 : -25	0	2.8	9%	4
> O=C(CNC(=S)N(CCCN1CCOCC1)Cc1cccs1)NCc1ccccc1Cl
 : x	x	2.7	x	3
> Cc1nccn1CC(O)COc1ccc([N+](=O)[O-])cc1 (configuration not stated)
 : x	x	0.5	x	-8
> O=C(O)c1ccc(NC(=O)c2cc3ccccc3o2)cc1
 : x	x	0.1	x	11
> Cc1cc(NC(=O)c2ccc(C#N)cc2)on1
 : x	-3	2.4	-1%	6
> Cc1cc(C)c2[nH]c(O)c(N=NC(=S)NCC3CCCO3)c2c1 (configuration not stated)
 : -30	10	-6.0	7%	10
> CCOC(=O)CNc1nc(Cl)nc(Nc2ccccc2)n1
 : x	5	-0.2	0%	6

Two successive entries already listed:
Values run as follows: YopH inh	Arbovirus inh	RecA splice inh	Mtb H37Rv	Mtb betalactam
> Cc1cc(NC(=O)c2ccc(C#N)cc2)on1
 : x	-3	2.4	-1%	6
> Cc1cc(C)c2[nH]c(O)c(N=NC(=S)NCC3CCCO3)c2c1 (configuration not stated)
 : -30	10	-6.0	7%	10

(next part)
Values run as follows: YopH inh	Arbovirus inh	RecA splice inh	Mtb H37Rv	Mtb betalactam
> Cn1nc([N+](=O)[O-])nc1N1CCOCC1
 : -33	4	-1.1	0%	-6
> COc1cccc(NC(=O)c2ccc[n+](C)c2)c1
 : x	x	-0.4	x	1
> COC(=O)c1cc(NC(=O)CN(c2ccccc2OC)S(=O)(=O)c2ccccc2)ccc1Cl
 : -31	-8	3.9	-3%	-12
> CCOCCn1c(=NC(=O)c2cc3ccccc3oc2=O)sc2cc(S(N)(=O)=O)ccc21
 : 1	9	5.5	3%	7
> COCCNC(=S)Nc1ccc2nc(N3CCN(C)CC3)cc(C)c2c1
 : x	x	-1.4	x	2
> Cc1ccc(-n2ncc3c(SCc4cccnc4)ncnc32)c(C)c1
 : x	4	2.7	6%	x
> CCn1c(CNC(=O)c2ccc3c(c2)OCO3)nnc1SCC(=O)Nc1cc(C)ccc1OC
 : 2	-4	-0.7	-3%	-2
> C=CCNC(=S)NNC(=O)c1ccc(OCCCC)cc1
 : 30	-6	x	4%	-12
> O=S(=O)(Nc1cccc(-n2cnnn2)c1)c1ccccc1
 : x	x	-1.2	x	4
> CC[C@H](C)[C@H](NC(=O)OCc1ccccc1)C(=O)Nc1ccc(NC(C)=O)cc1
 : x	5	-1.4	1%	3
> COc1ccc(O)c(C(=O)CC(=O)c2ccccc2C)c1
 : x	-20	11	17µM*	88
> CC(=O)Nc1ccc(S(=O)(=O)NC(C(=O)O)C2=CCC=CC2)cc1 (configuration not stated)
 : -46	3	-1.3	-5%	-2
> OC1(c2ccc(Cl)c(Cl)c2)C[n+]2ccccc2N1Cc1ccccc1 (configuration not stated)
 : x	x	x	8%	0
> CCOC(=O)COc1ccc(S(=O)(=O)N2CCN(c3ccc(F)cc3)CC2)cc1
 : -17	1	1.6	8%	51
> Cn1nc(-c2ccc(C(=O)NC3CCCCC3)cc2)c2ccccc2c1=O
 : x	x	-0.7	x	4
> O=C(C1CC(c2ccc(F)cc2)=NO1)N1CCCCC1 (configuration not stated)
 : -1	4	0.6	-10%	u
> COC(=O)CN(c1ccc(OCc2ccccc2)cc1)S(C)(=O)=O
 : x	3	1.6	1%	3
> O=C(Nc1ccccc1F)c1cc(S(=O)(=O)N2CCOCC2)cs1
 : x	x	-2.3	x	-3
> CCC(C(=O)OCC(=O)Nc1cc(Cl)cc(Cl)c1)c1ccccc1 (configuration not stated)
 : -26	14	11	-2%	4
> COc1ccc(N(C(C)C(=O)NC2CCCCCC2)S(C)(=O)=O)cc1 (configuration not stated)
 : -36	7	-1.7	-4%	-4
> C=CCN(c1ccccc1)S(=O)(=O)c1cc(C(=O)NC2=NCCS2)ccc1Cl
 : x	5	2.5	8%	-2
> CC1=NN(c2ccccc2)C(=O)C1/C=C1\NC(=S)NC1=O (configuration not stated)
 : x	5	0.5	-6%	-8
> O=C(O)c1cccc(Cn2c(Cl)c(/C=N/NC(=O)c3cc4ccccc4cc3O)sc2=O)c1
 : x	x	-7.4	-5%	-3
> CCOc1ccc(C(=O)NCc2ccccc2)cc1Br
 : -28	1	4.5	-5%	-5
> Cc1nc2ccccc2c(=O)n1/N=C/c1c(O)ccc2oc3c(c12)CCCC3
 : -49	-33	1.4	x	89
> CCCCS(=O)(=O)/C=C\C1C2C=CC(C2)C1S(=O)(=O)CCCC (configuration not stated)
 : -33	11	-0.9	-15%	1
> COC(=O)c1cnc(N2CCCN(S(=O)(=O)c3ccc(C(F)(F)F)cc3)CC2)nc1C(F)(F)F
 : x	x	-2.4	-8%	-12
> CCN(CCNC(=O)C1CCN(Cc2nc(-c3ccc(Cl)cc3)oc2C)CC1)c1ccccc1
 : 12	-35	3.9	8%	100
> Clc1ccc(-c2n[nH]c3c2Cc2ccccc2-3)cc1Cl
 : x	x	3.2	x	1
> Cc1nc(-c2ccc(S(=O)(=O)Nc3ccc(Br)cc3F)cc2)co1
 : x	x	0.1	x	0
> Cc1nc(NCCC(C)C)c2nnn(Cc3ccccc3)c2n1
 : x	x	1.1	x	1
> COC(=O)c1cc(S(=O)(=O)NCCc2ccccc2)c[nH]1
 : x	x	1.6	x	2
> CC1(C)NC(=O)N(CCOc2cccc(Oc3ccccc3)c2)C1=O
 : -34	-1	-0.4	-1%	-12
> COc1ccc(CCN(Cc2cc3cc(C)ccc3[nH]c2=O)C(C)=O)cc1OC
 : x	-2	-2.2	1%	17
> Cn1ncc(N=Cc2c(O)ccc3ccccc23)c1C(=O)Nc1cccc(Cl)c1
 : x	6	-28	5%	5
> CCCC(=O)Nc1cccc(NC(=O)c2cccc([N+](=O)[O-])c2C)c1
 : -8	9	0.9	37%	2
> Cc1onc(-c2c(F)cccc2Cl)c1C(=O)Nc1c(C)n(C)n(-c2ccccc2)c1=O
 : -34	1	2.6	0%	12
> Cc1ccc(-c2cn3cc([N+](=O)[O-])ccc3n2)cc1
 : -13	-4	-1.4	11%	70
> O=S(=O)(c1ccccc1)N1CCN(Cc2ccccc2)CC1
 : x	x	-1.2	x	2
> O=C(Nc1cccc(F)c1)C1CCCN(S(=O)(=O)c2ccc(-n3cnnn3)cc2)C1 (configuration not stated)
 : x	x	-1.2	x	-5
> Cn1ncc(C#N)c1/N=C/N1CCCCCC1
 : 19	6	0.5	-7%	-2
> Cc1csc(NC(=O)Cc2coc3cc(C)c(C(C)C)cc23)n1
 : -19	-21	9.9	0%	19
> COc1ccc(NC(=O)CSc2nc3ccccc3c(=O)n2-c2ccc3c(c2)OCO3)c(OC)c1
 : -54	-1	4.4	-9%	-3
> O=C(O)CNC(=S)N(Cc1ccccc1)Cc1ccccc1F
 : x	0	0.0	-11%	-2
> N=C1/C(=C\c2ccc(SCc3ccco3)o2)C(=O)N=C2SC=NN12
 : -14	6	-1.8	-8%	7
> CC1(C(=O)OCC(=O)Nc2ccc3ccccc3c2)CC1(Cl)Cl (configuration not stated)
 : x	3	8.2	76%	35
> Cc1c(Cl)cccc1NC(=S)NCc1ccc(F)cc1
 : x	x	2.2	x	4
> Cc1nn(-c2ccccc2)c(Cl)c1/C=N/Nc1ccc(Cl)c(C(=O)O)c1
 : -17	89*	-0.8	6%	4
> O=c1c2ccccc2ncn1-c1ccc(Cl)cc1[N+](=O)[O-]
 : x	-8	0.4	-1%	-3
> Fc1ccc(-c2cc(-c3nnc4n3CCCCC4)c3ccccc3n2)cc1
 : -44	19	0.4	5%	7
> COc1ccc(C(O)C(C)NC(C)C(O)c2ccc(OC)cc2)cc1 (configuration not stated)
 : x	x	7.0	x	-3
> NC(=O)C1=C[C@@H](c2ccc3c(c2)OCO3)C[C@@H](OCCCCO)O1
 : x	x	-9.2	-5%	-13
> O=C(Nc1ccc2c(c1)OCO2)C1CC(c2ccccc2O)=NO1 (configuration not stated)
 : x	x	-3.3	x	1
> COc1ccc(C(=O)NCc2ccncc2)cc1OC
 : x	-4	x	-1%	-5
> CCc1ccc(-c2cn(-c3nc(C)cc(C)n3)c(=N)o2)cc1
 : -42	-31	-1.6	0%	-3
> CN(Cc1ccccc1)S(=O)(=O)c1ccc(NS(C)(=O)=O)cc1
 : -28	7	8.0	-4%	-6
> O=c1[nH]c(C2CCCN(S(=O)(=O)c3ccccc3)C2)nc2c1nnn2Cc1ccccc1 (configuration not stated)
 : -30	-5	7.8	4%	-3
> CN(C)Cc1cc2ccccc2c2c1COC2
 : x	x	-3.3	-1%	4
> O=C(NCC1CCCN(C(=O)c2cccc(C(F)(F)F)c2)C1)c1ccc(F)cc1 (configuration not stated)
 : x	x	0.7	x	3
> CCOc1cccc(-c2cc(C(=O)Nc3ccon3)c3ccccc3n2)c1
 : x	x	0.5	x	45

Next entries.
Values run as follows: YopH inh	Arbovirus inh	RecA splice inh	Mtb H37Rv	Mtb betalactam
> Cc1ccc(CNS(=O)(=O)c2ccc(CN3C(=O)c4cccnc4C3=O)s2)o1
 : x	x	-1.5	x	10
> CCOC(=O)c1sc2nc(N3CCOCC3)c3c(c2c1N)CC(C(C)C)OC3 (configuration not stated)
 : x	0	0.5	8%	-8
> O=c1c(O)c(-c2ccc(O)c(O)c2)oc2cc(O)cc(O)c12
 : x	x	-3.7	x	6
> CN(C)S(=O)(=O)c1ccc(NC(=O)CN2CCC(Cc3ccccc3)CC2)cc1
 : x	-34	1.8	0%	2
> CCOC(=O)c1c(C)[nH]c(C)c1S(=O)(=O)N(C)CC(=O)NCc1cccc(Br)c1
 : x	x	0.0	x	u
> CC(C)N(CC#CC(O)(c1ccccc1)c1ccccc1)C(C)C
 : x	x	0.7	15%	0

Exported in markdown: part of the list above.
| SMILES | YopH inh | Arbovirus inh | RecA splice inh | Mtb H37Rv | Mtb betalactam |
| --- | --- | --- | --- | --- | --- |
| Cc1ccc(CNS(=O)(=O)c2ccc(CN3C(=O)c4cccnc4C3=O)s2)o1 | x | x | -1.5 | x | 10 |
| CCOC(=O)c1sc2nc(N3CCOCC3)c3c(c2c1N)CC(C(C)C)OC3 (configuration not stated) | x | 0 | 0.5 | 8% | -8 |
| O=c1c(O)c(-c2ccc(O)c(O)c2)oc2cc(O)cc(O)c12 | x | x | -3.7 | x | 6 |
| CN(C)S(=O)(=O)c1ccc(NC(=O)CN2CCC(Cc3ccccc3)CC2)cc1 | x | -34 | 1.8 | 0% | 2 |

Bioassay records from PubChem.
